UBC13 polyUb – blocks human UBC13 polyubiquitin chain formation; AID 485273; inhibition, % at 20 µM; TR-FRET; actives 0.47% (n = 330,000); P61088; in the data active = inhibition above about 45%, passing the limit was not always enough
Target sequence (P61088 whole entry, looked up): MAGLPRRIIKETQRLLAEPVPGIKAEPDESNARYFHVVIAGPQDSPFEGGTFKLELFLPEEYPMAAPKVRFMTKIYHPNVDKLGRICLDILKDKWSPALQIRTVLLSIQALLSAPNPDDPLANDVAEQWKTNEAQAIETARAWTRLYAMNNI
Gli-Sufu antag – Gli-Sufu pathway antagonism. inhibition, % at 5 µM. AID 588413. Sufu-KO-LIGHT fibroblasts, Gli luciferase reporter luminescence. actives 0.74% (n = 340,000);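 active = inhibition above about 55%, limit read from the data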;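 note: 0% = DMSO-treated cells and 100% = wells with medium but no cells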
Jurkat NFkB inh – inhibitors of the PMA/ionomycin-induced NF-kB reporter in Jurkat cells | PMA/ionomycin-induced NF-kB luciferase reporter, luminescence | inhibition, % at 4 µM | actives 0.53% (n = 330,000) | AID 435003; in the data active = inhibition above about 50%
HKDC1 inhibitor – HKDC1 (human) hexokinase inhibition; recombinant HKDC1, G6PDH/diaphorase resazurin coupled fluorescence; actives 0.16% (n = 340,000); inhibition, % at 20 µM; Q2TB90;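 active = inhibition above about 35% when tested at 20 µM, limit read from the data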;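 note: plate controls were DMSO wells with enzyme for no effect and DMSO wells lacking enzyme for full effect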
Target sequence (Q2TB90 whole entry, looked up): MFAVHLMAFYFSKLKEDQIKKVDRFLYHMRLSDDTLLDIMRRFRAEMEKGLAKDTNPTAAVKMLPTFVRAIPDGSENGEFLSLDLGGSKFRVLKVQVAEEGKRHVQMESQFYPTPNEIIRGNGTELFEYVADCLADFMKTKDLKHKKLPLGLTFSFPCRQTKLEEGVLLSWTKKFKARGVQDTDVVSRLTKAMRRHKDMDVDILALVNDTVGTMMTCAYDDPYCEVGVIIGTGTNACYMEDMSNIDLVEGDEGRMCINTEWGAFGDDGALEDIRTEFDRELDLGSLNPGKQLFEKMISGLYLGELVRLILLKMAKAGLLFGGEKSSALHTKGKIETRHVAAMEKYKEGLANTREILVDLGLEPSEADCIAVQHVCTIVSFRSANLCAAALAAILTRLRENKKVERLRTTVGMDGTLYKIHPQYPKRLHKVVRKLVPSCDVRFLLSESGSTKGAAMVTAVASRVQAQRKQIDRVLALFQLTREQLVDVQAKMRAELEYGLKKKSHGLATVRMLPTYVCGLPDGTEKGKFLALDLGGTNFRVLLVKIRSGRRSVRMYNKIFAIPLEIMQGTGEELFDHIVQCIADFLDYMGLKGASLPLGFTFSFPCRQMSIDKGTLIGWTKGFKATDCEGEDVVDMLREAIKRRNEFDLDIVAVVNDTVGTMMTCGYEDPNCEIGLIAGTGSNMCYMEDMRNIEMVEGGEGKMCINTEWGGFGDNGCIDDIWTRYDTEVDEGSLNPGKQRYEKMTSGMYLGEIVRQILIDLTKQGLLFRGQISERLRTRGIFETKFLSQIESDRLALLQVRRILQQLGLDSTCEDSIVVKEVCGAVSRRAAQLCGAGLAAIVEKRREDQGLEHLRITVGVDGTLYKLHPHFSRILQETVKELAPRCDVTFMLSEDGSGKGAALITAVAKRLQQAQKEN
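Test system: Recombinant HKDC1 (HK5) hexokinase enzyme, produced in-house | Input: HKDC1 at 5 µg/mL | Buffer or medium: Tris pH 8.0 buffer with MgCl2, Tween-20, BSA, BME | Schedule: 90 min reaction incubation at room temperature, dark | Technique: Resazurin-to-resorufin fluorescence via G6PDH and diaphorase coupling, 525/613 nm | Controls: DMSO wells with and without enzyme mix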
Apaf-1 inh – blocks human Apaf-1 apoptosome activity | O14727 | reconstituted apoptosome caspase-3 activity, DEVD-Rh110 fluorescence | inhibition, % at 20 µM | actives 0.71% (n = 330,000) | AID 489030; active = inhibition of at least 40% at 20 µM;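 note: plate controls were DMSO wells for no effect and DEVD-CHO caspase inhibitor wells for full effect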
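System: reconstituted apoptosome with Apaf-1, cytochrome c, caspase-9, procaspase-3, dATP; Signal: Rh110 fluorescence intensity; Schedule: 30 min compound preincubation, 50 min activation, room temperature; Reagent: cytochrome c trigger plus (Z-DEVD)2-Rh110 caspase-3 substrate.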
697 NFkB inh – lowers PMA/ionomycin-induced NF-kB signal in 697 B cells; 697 B-cell NF-kB luciferase reporter, 16 h; inhibition, % at 4 µM; actives 0.33% (n = 330,000); in the data active = inhibition above about 35%
An asterisk follows results filed as active; / = no result given. A portion of the library, so the mix of outcomes need not match the whole.

SMILES | HKDC1 inhibitor | Jurkat NFkB inh | Gli-Sufu antag | UBC13 polyUb | 697 NFkB inh | Apaf-1 inh
COc1ccc(/C=N\NC(=O)c2ccccc2[N+](=O)[O-])cc1COc1c(F)c(F)c(F)c(F)c1F | -2 | 10 | -11 | -2 | 17 | 24
Cc1cccc(COc2ncnc3nc[nH]c23)c1 | 4 | -15 | -16 | -18 | -27 | 1
CCCCCSc1nc(O)cc(=O)[nH]1 | 0 | -11 | 19 | -8 | 3 | 5
O=C1COc2ccc(C(=O)COC(=O)c3ccccc3Cl)cc2N1 | -2 | 9 | 0 | 18 | 1 | -4
COc1ccc(C)cc1-n1nc2ccccc2n1 | -10 | 5 | -9 | -5 | -9 | 9
Cc1ccc(Nc2ncnc3nc[nH]c23)cc1Cl | 0 | -92 | -42 | 10 | -101 | 17
COc1ccccc1N(Cc1ccccc1)S(=O)(=O)c1cccc(C(=O)Nc2ccccn2)c1 | 3 | -7 | 3 | -8 | -324 | 24
COC(=O)c1sccc1NC(=O)COc1ccc(F)cc1Cl | 1 | -45 | -38 | 2 | -40 | -7
O=C(Nc1nc2c(s1)CCCC2=O)c1cnccn1 | -10 | -11 | -26 | -3 | -21 | -3
COc1ccc(NC(=O)c2ccc(C)o2)c([N+](=O)[O-])c1 | -15 | -38 | -42 | -7 | -53 | 9
Cc1cc(C)c2c(c1)cc(C)c1nnc(SCC(=O)Nc3cc(C)on3)n12 | 13 | 34 | 8 | 2 | -29 | -13
C=CCNC(=O)NC(=O)CSc1nnc(C(F)(F)F)n1C | -10 | -5 | 2 | 48* | -21 | 9
COc1ccc(-c2cc(-c3n[nH]c(=S)n3-c3cc(OC)ccc3OC)[nH]n2)cc1 | 3 | 19 | 2 | -1 | -3 | 1
Cc1cc(C(=O)COC(=O)c2cccnc2Cl)c(C)n1C | 2 | -99 | -38 | 8 | -80 | -2
Cc1cc(C)c2nc(NC(=O)c3ccc4c(c3)OCO4)sc2c1 | 2 | -4 | -37 | 0 | -20 | -33
Cc1cccc(/C=C2/Sc3ccc(C(=O)N4CCOCC4)cc3NC2=O)c1 | 8 | 0 | -4 | -2 | 4 | 15
Cc1cc(C)c2nc(NCCCNC(=S)NCCCN(C)C)c(C#N)cc2c1 | 2 | -12 | 11 | 50* | -9 | 9
O=C(Nc1ccccn1)c1ccc(-c2ccccc2)cc1 | 4 | -94 | -49 | -3 | -44 | 10
COc1ccccc1OCc1ccc(C(=O)Nc2ccccc2)cc1 | -7 | -68 | -36 | -5 | -2 | 4
CC1CN(C(=O)CSc2nnc(-c3cccs3)n2N)CC(C)O1 (stereo not drawn) | -4 | 5 | -2 | -2 | -11 | -3

Looked up above.
697 NFkB inh with COC(=O)c1sccc1NC(=O)COc1ccc(F)cc1Cl reads -40
Gli-Sufu antag with COc1ccc(NC(=O)c2ccc(C)o2)c([N+](=O)[O-])c1 reads -42

Further entries
SMILES | HKDC1 inhibitor | Jurkat NFkB inh | Gli-Sufu antag | UBC13 polyUb | 697 NFkB inh | Apaf-1 inh
Cc1ccc(CNC(=O)C2(S(=O)(=O)c3ccccc3)CC=CC2)cc1 | 2 | -61 | -22 | -1 | -80 | -2
COc1ccc(C(C)=O)cc1COC(=O)c1cc(=O)c2ccccc2o1 | -4 | -3 | -23 | 0 | 1 | -4
COc1ccc(NC(=O)C(=O)NNC(=O)c2cccs2)cc1 | -9 | 10 | -13 | 2 | 4 | -13
CCOc1cc(S(=O)(=O)NCCN2CCOCC2)c(C)cc1C | 4 | -10 | -1 | 5 | 4 | -3
O=C1N(Cc2ccccc2)c2ccccc2C12OCCO2 | 5 | -19 | -4 | -6 | 0 | 8
O=C(Nc1ccc([N+](=O)[O-])cc1)c1cccc(S(=O)(=O)Nc2cccnc2)c1 | -2 | -10 | 4 | -6 | 10 | 1
O=C(N/N=C/c1ccc([N+](=O)[O-])cc1)c1ccc(NS(=O)(=O)c2cccs2)cc1 | -2 | 10 | -5 | -16 | 8 | -10
O=S(=O)(Nc1cccc(-c2ccc(N3CCOCC3)nn2)c1)c1cc(Cl)ccc1Cl | 0 | -10 | -24 | 3 | -49 | 24
Cc1ccc(OCCOCCN(C)C)c(Cl)c1 | -6 | -3 | -1 | -1 | -34 | -1
Cc1c(OC(C)C(=O)N2C[C@H]3C[C@@H](C2)c2cccc(=O)n2C3)ccc2c3c(c(=O)oc12)CCCC3 (stereo partly drawn) | -1 | 20 | 5 | 14 | 7 | 1
O=C(CCS(=O)(=O)c1ccc2c(c1)NC(=O)CO2)NCc1ccccc1 | -1 | -8 | 2 | -4 | 11 | -9
C=CCc1cc(Cl)ccc1OCCOCCN(C)C | 0 | -2 | 7 | -9 | -7 | -5
COC(=O)c1sccc1NC(=O)Nc1cc(C)ccc1OC | -1 | 12 | -8 | 0 | 29 | 1
O=C(Nc1ccc2nccnc2c1)Nc1ccccc1Cl | 10 | -55 | -30 | -4 | -25 | 10
Nc1c(Cl)cc(C2=NCCn3c2c2ccc([N+](=O)[O-])cc2[n+]3[O-])cc1Cl | 6 | -11 | 13 | 8 | -114 | 18
Cn1c(CC(=O)NNC(=O)c2ccc(F)cc2F)nc2ccccc21 | -5 | 3 | 8 | -7 | 10 | 2
COc1ccc(/C=N\NC(=O)c2ccc([N+](=O)[O-])c(C)c2)cc1COc1ccccc1C(N)=O | 2 | -8 | 9 | -7 | 22 | 24
COc1ccc(NC(=O)COC(=O)C23CC4CC(CC(O)(C4)C2)C3)cc1Cl | -2 | -35 | 2 | 0 | -21 | 16
CC(C)c1ccc(Nc2ncccc2C#N)cc1 | -6 | -64 | 6 | 17 | -45 | 2
COc1ccccc1NC(=O)Nc1ccc(NC(=O)c2ccccc2O)cc1 | 0 | 12 | 1 | 14 | -4 | 5

Part of the list above, field by field:
CCCCCSc1nc(O)cc(=O)[nH]1
  HKDC1 inhibitor: 0
  Jurkat NFkB inh: -11
  Gli-Sufu antag: 19
  UBC13 polyUb: -8
  697 NFkB inh: 3
  Apaf-1 inh: 5
O=C1COc2ccc(C(=O)COC(=O)c3ccccc3Cl)cc2N1
  HKDC1 inhibitor: -2
  Jurkat NFkB inh: 9
  Gli-Sufu antag: 0
  UBC13 polyUb: 18
  697 NFkB inh: 1
  Apaf-1 inh: -4
COc1ccc(C)cc1-n1nc2ccccc2n1
  HKDC1 inhibitor: -10
  Jurkat NFkB inh: 5
  Gli-Sufu antag: -9
  UBC13 polyUb: -5
  697 NFkB inh: -9
  Apaf-1 inh: 9

(continued)
SMILES | HKDC1 inhibitor | Jurkat NFkB inh | Gli-Sufu antag | UBC13 polyUb | 697 NFkB inh | Apaf-1 inh
c1ccc(-c2nc(CSc3n[nH]c(-c4cccs4)n3)cs2)cc1 | -6 | -3 | 5 | -4 | 21 | -4
CC(=O)NS(=O)(=O)c1cccnc1Nc1ccc(Cl)cc1 | -3 | -9 | 2 | 1 | 5 | -4
CN(C)S(=O)(=O)NCc1ccc2c(c1)OCO2 | -2 | 10 | 1 | 7 | 3 | -14
CCOc1ccc(OCc2ccc(C(=O)OCc3ccccn3)o2)cc1 | -2 | 24 | -85 | 2 | -23 | 33
COc1ccc(-c2noc(-c3cccc(OC)c3OC)n2)cc1OC | 1 | -116 | -84 | 8 | -79 | 11
N#Cc1ccc(COC(=O)c2cc(=O)c3ccccc3o2)cc1 | -3 | -12 | 3 | -13 | -2 | 8
CCN1CCN(c2oc(/C=C/c3ccccc3)nc2C#N)CC1 | -1 | -32 | 14 | 4 | -28 | -6
Cc1cc2c(cc1S(=O)(=O)N(C)c1ccccc1)NC(=O)CO2 | -6 | -8 | -1 | 6 | 7 | 4
N/C(=N\N=C\c1cccc([N+](=O)[O-])c1)c1nonc1N | -3 | -22 | -30 | -4 | -25 | 15
Brc1ccsc1-c1csc(-c2ccncc2)n1 | 2 | -41 | -22 | -9 | -30 | 14
Cc1nc(-c2ccc(C(=O)Nc3cc(S(N)(=O)=O)ccc3C)cc2)cs1 | -8 | -26 | -13 | -1 | -37 | 3
CCCCOC(=O)c1ccc(NC(=O)c2ccoc2C)cc1 | 3 | -81 | -55 | 7 | -52 | 7
COc1ccc(C(=O)NNC(=O)Cc2nc3ccccc3n2C)cc1 | -5 | -1 | 0 | -9 | 8 | -9
Fc1ccccc1/C=N/Nc1nc(-c2ccccn2)nc2ccccc12 | / | 61* | / | -28 | -23 | 11
COc1nccnc1NS(=O)(=O)c1ccc(NC(=S)NC(=O)c2ccccc2)cc1 | -7 | 8 | -6 | 9 | 11 | -2
CCOc1ccc(-c2cccc(NS(=O)(=O)c3ccc([N+](=O)[O-])cc3)c2)nn1 | 4 | 16 | -26 | -10 | 13 | 12
Cc1ccccc1-c1nnc(-c2cccs2)o1 | -1 | -59 | -18 | 7 | -58 | -17
COc1ccc(Nc2nc3ccc(C)cn3c(=O)c2/C=N/O)cc1 | -2 | -18 | 0 | -7 | -52 | 15
O=C(Nc1ccc(NC(=O)c2ccco2)c(Cl)c1)c1ccccc1 | -12 | -41 | -27 | -2 | -3 | 2
O=C(Nc1nnc(CCN2CCCCC2)s1)c1ccccc1Cl | -4 | -8 | 11 | 0 | 3 | -9

Retrieved by compound from the list above (6):
SMILES | HKDC1 inhibitor | Jurkat NFkB inh | Gli-Sufu antag | UBC13 polyUb | 697 NFkB inh | Apaf-1 inh
Cc1nc(-c2ccc(C(=O)Nc3cc(S(N)(=O)=O)ccc3C)cc2)cs1 | -8 | -26 | -13 | -1 | -37 | 3
CCN1CCN(c2oc(/C=C/c3ccccc3)nc2C#N)CC1 | -1 | -32 | 14 | 4 | -28 | -6
O=C(Nc1nnc(CCN2CCCCC2)s1)c1ccccc1Cl | -4 | -8 | 11 | 0 | 3 | -9
O=C(Nc1ccc(NC(=O)c2ccco2)c(Cl)c1)c1ccccc1 | -12 | -41 | -27 | -2 | -3 | 2
COc1ccc(Nc2nc3ccc(C)cn3c(=O)c2/C=N/O)cc1 | -2 | -18 | 0 | -7 | -52 | 15
CN(C)S(=O)(=O)NCc1ccc2c(c1)OCO2 | -2 | 10 | 1 | 7 | 3 | -14

The listing continues:
SMILES | HKDC1 inhibitor | Jurkat NFkB inh | Gli-Sufu antag | UBC13 polyUb | 697 NFkB inh | Apaf-1 inh
Cn1c(-c2ccc(F)cc2)cc2onc(-c3c(F)cccc3Cl)c2c1=O | -4 | -9 | -154 | 6 | -165 | 13
Cc1ccc(NC(=O)c2cnc(SCC(=O)NCC3CCCO3)n(C)c2=O)cc1C (stereo not drawn) | 4 | -27 | 21 | 72* | -4 | 16
COc1ccc(C(=O)Nc2ccc(C(=O)N3CCCCC3)cc2)cc1OC | -5 | -9 | -35 | 4 | 3 | 3
COc1ccc(NS(=O)(=O)c2ccc(NS(=O)(=O)c3ccc(C)cc3)cc2)nn1 | 8 | -3 | 0 | -9 | -2 | 0
CC(=O)C1=C(C)Nc2ncnn2C1c1cccc(OCc2ccccc2)c1 (stereo not drawn) | 1 | 4 | 2 | 11 | 11 | 9
O=[N+]([O-])c1c(NCCO)cc(N2CCCCC2)c2nonc12 | 10 | 3 | 4 | -40 | -9 | 3
CCCc1cc(C(=O)Nc2ccc(OC)cc2[N+](=O)[O-])cs1 | -3 | -27 | -36 | -10 | -12 | 17
CSc1nc(N2CCCC2)c2c(c1C#N)CC(C)(C)OC2 | 1 | 1 | -3 | 34 | -24 | 32
COc1ccc(Cl)cc1NC(=O)Nc1ccc(C(=O)N2CCCC2)cc1 | -1 | -9 | -11 | 33 | -34 | 22
O=C(CNC(c1ccccc1)c1ccccc1)Nc1c(F)cccc1F | -6 | 10 | -1 | -3 | 1 | 2
Cc1cc(NC(=O)c2ccc(Br)o2)ccc1NC(=O)c1ccco1 | -4 | 4 | 20 | -6 | 15 | 1
CCOC(=O)/C(=N\O)C1=NC(C)(C)Cc2ccccc21 | -4 | 10 | -23 | 4 | 5 | -10

Screens as filed in PubChem BioAssay.
